KCNQ2 block – KCNQ2 channel blockers in CHO-K1 cells – cell-based, FluxOR thallium flux, B-score, primary screen (AID 2156); O88943; 20 min; stronger effect = lower value; only compounds with negative scores are shown here; some inactives read as strong as hits; B-score at 10 µM; 310,000 compounds, 1.1% hits;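 active means fluorescence ratio B-score at most minus 3 library SDs, with starting brightness B-score within 2 library SDs, cut at about -5.5 in these data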
Target sequence (O88943 whole entry, looked up): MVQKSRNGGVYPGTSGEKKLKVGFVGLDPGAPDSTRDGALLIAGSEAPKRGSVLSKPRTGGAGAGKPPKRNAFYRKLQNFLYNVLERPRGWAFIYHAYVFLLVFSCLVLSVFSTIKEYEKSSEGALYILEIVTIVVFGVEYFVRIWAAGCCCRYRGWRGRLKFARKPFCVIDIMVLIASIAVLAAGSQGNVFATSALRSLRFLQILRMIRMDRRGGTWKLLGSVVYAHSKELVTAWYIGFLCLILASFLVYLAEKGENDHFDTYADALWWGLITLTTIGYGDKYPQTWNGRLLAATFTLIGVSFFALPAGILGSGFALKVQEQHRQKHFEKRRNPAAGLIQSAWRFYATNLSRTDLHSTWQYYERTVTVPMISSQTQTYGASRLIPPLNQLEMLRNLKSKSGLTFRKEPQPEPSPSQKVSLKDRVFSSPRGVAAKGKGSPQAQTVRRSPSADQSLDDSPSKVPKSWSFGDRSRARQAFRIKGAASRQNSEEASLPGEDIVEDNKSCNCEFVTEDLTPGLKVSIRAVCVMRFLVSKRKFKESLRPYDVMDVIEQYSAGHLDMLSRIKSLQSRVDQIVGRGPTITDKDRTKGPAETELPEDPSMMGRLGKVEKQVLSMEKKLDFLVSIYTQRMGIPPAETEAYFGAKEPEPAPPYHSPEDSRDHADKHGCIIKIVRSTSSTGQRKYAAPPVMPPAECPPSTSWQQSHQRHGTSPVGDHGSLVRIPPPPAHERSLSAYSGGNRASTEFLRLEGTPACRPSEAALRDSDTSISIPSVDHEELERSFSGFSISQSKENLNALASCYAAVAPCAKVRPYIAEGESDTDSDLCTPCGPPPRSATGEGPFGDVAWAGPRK
KCNQ2 block baseline – second read-out of KCNQ2 block, no call of its own (marks repeat the call); B-score; measured here: initial fluorescence intensity artifact check;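 brightness before thallium and not channel activity; 0 = typical well and far values either way flag optical interference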
Active calls of the source: *; i = inactive. Not all compounds are listed; count on the stated rates, not on these rows.

SMILES	KCNQ2 block	KCNQ2 block baseline
C/C(=N/NC(=O)c1ccccn1)c1c[nH]c2ccccc12	i	0.42
CC(C)Cc1nc(N2CCN(C(=O)C(C)C)CC2)c(C#N)c2c1CCC2	-6.45*	1.08*
O=C(NCc1ccco1)C1CCCN(S(=O)(=O)c2cc(Cl)ccc2Cl)C1 (stereo unspecified)	i	0.6
CC(C)N(Cc1cnn(C)c1)Cc1nc(Cc2ccccc2Cl)no1	i	-1.07
Cc1cc(C)n2nc(C(=O)OC(C)C(=O)c3ccccc3)nc2n1 (stereo unspecified)	i	-0.33
COc1ccc(S(=O)(=O)Cc2ccc(C(=O)N3CCN(C(=O)c4ccco4)CC3)o2)cc1	i	0.14
COc1ccccc1C(c1nnnn1CS(=O)(=O)c1ccc(C)cc1)N1CCSCC1 (stereo unspecified)	i	1.05
Cc1ccc(NC(=O)C2CCN(C(=O)c3ccco3)CC2)cc1C	i	-0.02
Nc1ccc2c(c1)Cc1cc([N+](=O)[O-])ccc1-2	i	0.09
COc1cccc(NC(=O)COc2coc(CN3CCc4ccccc4C3)cc2=O)c1	i	-0.08

Some values from the entries so far.
Under KCNQ2 block baseline, `COc1cccc(NC(=O)COc2coc(CN3CCc4ccccc4C3)cc2=O)c1` shows -0.08
Under KCNQ2 block baseline, `Nc1ccc2c(c1)Cc1cc([N+](=O)[O-])ccc1-2` shows 0.09

The listing continues:
SMILES	KCNQ2 block	KCNQ2 block baseline
Nc1c(C(=O)Nc2ccccc2Cl)nnn1-c1ccc2c(c1)OCCO2	i	-0.05
CCOc1cc(/C=N/N=C2/NC(=O)C(CC(=O)O)S2)ccc1OCc1ccc(Cl)cc1 (stereo unspecified)	i	-0.18
Cc1cccc2nc(CSc3ccccc3N)cn12	i	0.64
O=C(c1ccc(-n2cncn2)c([N+](=O)[O-])c1)N1CCN(S(=O)(=O)c2ccc(Br)cc2)CC1	i	2.91
COc1ccc(-c2nc(CN(Cc3cnn(C)c3)C(C)C)c(C)o2)c(OC)c1	i	-1.03
CCOC(=O)c1c(N)c(C#N)cn1-c1ccccc1	i	0.07
COCCn1c(-c2ccc(Br)cc2)nc2oc3cc(OC)ccc3c(=O)c2c1=O	i	1.22
Cc1ccccc1-n1c(C)c(C#N)c(=O)c(-[n+]2ccccc2)c1[S-]	i	-0.32
COCCC(=O)N1CCC(Oc2ccc(C(=O)N3C[C@@H](C)O[C@@H](C)C3)cc2)CC1	i	1.59
COC(=O)c1cccc(Nc2ncnc3ccc(C)cc23)c1	i	3.62
COc1ccc2oc(=O)c(/C(C)=N/Nc3ccccc3)cc2c1	i	0.75
CCOc1ccccc1NC(=O)NCCC1=CCCCC1	i	0.27
O=C(O)CC(c1cccc([N+](=O)[O-])c1)N1Cc2ccccc2C1=O (stereo unspecified)	i	-0.18
COc1ccc(Br)cc1/C=C/C(=O)Nc1c(C)cccc1C	i	-0.45
CC(C)(C)n1nnnc1C(c1ccc(C(F)(F)F)cc1)N(Cc1ccc(F)cc1)Cc1ccco1 (stereo unspecified)	-6.54*	0.17*
COc1cc(/C=C/C(=O)O)cc(S(=O)(=O)Nc2ccccc2C(=O)NCCc2ccccc2)c1OC	i	-1.57
CC1CCCCC1NC(=O)CCCCCn1c(=S)[nH]c2ccccc2c1=O (stereo unspecified)	i	2
COC(=O)CC1SC(=O)NC1=Nc1cccc(C)c1 (stereo unspecified)	i	-0.8
O=[N+]([O-])c1ccc(Oc2ccc(C(F)(F)F)cn2)cc1	i	0.82
Cc1ccc(NC(=O)C(=O)NCCc2c[nH]c3ccccc23)cc1C	i	0.91
COC(=O)CN1C(=O)CC(C)(C)Sc2ccccc21	i	4.04
COc1ccc(Cc2n[nH]c(=S)n2-c2ccc3c(c2)OCCO3)cc1	i	2.01
Nc1ccc(-c2cnc(-c3ccc(N)cc3)nc2)cc1	i	-0.11
CCc1ccc(NC(=O)/C(C#N)=C/c2ccncc2)cc1	i	-1.03
COc1cc(NC(=S)N2CCN(c3ccccn3)CC2)c(OC)cc1Cl	i	1.36
Cc1ccc2ncnc(NCCC(=O)O)c2c1	i	1.19
COc1ccc(C(=O)Nc2cccc(N(C)S(C)(=O)=O)c2)cc1OC	i	-0.9
Cc1cc(C)n(-c2nc3ccccc3c(=O)n2OCC(=O)Nc2c(C)cccc2C)n1	-6.05*	1.35*
COc1ccccc1N1CCN(C(=O)Cn2nnc(-c3cccs3)n2)CC1	i	-0.71
CC1=NN(C(=O)Cn2nc([N+](=O)[O-])cc2C)C(O)(C(F)(F)F)C1 (stereo unspecified)	i	1.98

Reprinted from the results shown, 5 compounds:
SMILES	KCNQ2 block	KCNQ2 block baseline
Nc1ccc(-c2cnc(-c3ccc(N)cc3)nc2)cc1	i	-0.11
CCc1ccc(NC(=O)/C(C#N)=C/c2ccncc2)cc1	i	-1.03
COc1cc(NC(=S)N2CCN(c3ccccn3)CC2)c(OC)cc1Cl	i	1.36
Cc1ccc2ncnc(NCCC(=O)O)c2c1	i	1.19
COc1ccc(C(=O)Nc2cccc(N(C)S(C)(=O)=O)c2)cc1OC	i	-0.9

(more compounds)
SMILES	KCNQ2 block	KCNQ2 block baseline
O=C(c1cc(COc2ccc(F)cc2Cl)on1)N1CCSCC1	i	-0.07
COc1ccc(CCNC(=O)NS(=O)(=O)c2ccc(C)cc2)cc1OC	i	0.54
COC(=O)c1sccc1NC(=O)c1ccc2c(c1)OCO2	i	0.07
O=C(CN1C(=O)C(=O)c2ccccc21)NCCc1ccccc1	i	0.25
O=c1c2ccccc2c(-c2ccccc2)nn1-c1cc(Cl)cc(Cl)c1	i	-1.13
C=C1CCN(CC(=O)OC)S(=O)(=O)c2ccccc21	i	-2.45
Cc1cc(C)n2nc(C(=O)Nc3cccc(S(=O)(=O)N4CCCC4)c3)nc2n1	i	3.14
O=C(N/N=C\c1cc2c(cc1Cl)OCO2)c1ccc(Br)s1	i	1.73
O=C(NNC(=S)NC(=O)c1ccccc1)c1ccc([N+](=O)[O-])cc1	i	-0.17
CCOC(=O)N1CCN(CCC(=O)Nc2cc(OC)ccc2OC)CC1	i	-1.15
Cc1ccccc1Cn1cnc2ccccc21	i	1.62
C/C(=C\C(=O)c1c(O)cc(C)oc1=O)N(C)C	i	-0.05
CC(C)CCc1noc(CN2CCN(CC(=O)NC(C)C)CC2)n1	i	1.76
Cc1ccc(-c2noc(CCCOc3ccc(Cl)cc3Cl)n2)cc1	-7.26*	-0.47*
O=C(c1ccc(Cl)cc1)N(c1ccccn1)C1CCCCC1	i	-0.82
O=C(C1CCN(S(=O)(=O)c2ccc(Br)s2)CC1)N1CCc2ccccc21	i	1.59
COc1ccc(C)cc1N(C(=O)CNC(=O)c1ccco1)C(C(=O)NCC1CCCO1)c1ccccc1 (stereo unspecified)	i	-0.43
COc1ccc(F)c(-c2nc(CN3CCN(C(=O)c4ccco4)CC3)c(C)o2)c1	i	-0.97
COc1ccc(NC(=O)/C(C#N)=C/c2cccnc2)c(OC)c1	i	0.01
COc1cccc2cc(-c3cc(=O)oc4ccc(O)cc34)oc12	i	-0.64
Cc1ccc(N(C(=O)c2csnn2)C(C(=O)NC2CCCC2)c2ccncc2)c(C)c1 (stereo unspecified)	i	-0.21
COCc1cc(=O)[nH]c(-c2csc(C)n2)n1	i	-0.8
COc1ccc(-n2c(C)ccc2-c2ccccc2)cn1	i	3.88
COc1cc(C(=O)NC(=S)Nc2ccc3oc(=O)ccc3c2)cc(OC)c1OC	i	-0.91
Cc1ccnc(NC(=O)C2CCCN(S(=O)(=O)c3cnc[nH]3)C2)c1 (stereo unspecified)	i	-0.05
COc1ccc(-n2c(CCc3ccccc3)nnc2SCC(=O)c2ccccc2)cc1	i	-0.44
COc1ccc(-c2nc3c(n2O)CCC/C3=N\O)cc1	i	-0.95
C=CCN1C(=O)c2ccc(C(=O)N3CCN(c4ccccc4OC)CC3)cc2C1=O	i	0.22
Cc1nnc(C)n1/N=C/c1ccc(O)cc1	i	-0.08
O=C(CSCc1ccc(Cl)cc1)Nc1ccccc1C(=O)N1CCOCC1	i	0.14
O=[N+]([O-])c1cc(S(=O)(=O)NCCN2CCOCC2)ccc1Cl	i	0.07
Cc1cccc(C)c1NC(=O)c1cccc2c1C(=O)N(C1CCCCC1)C2	i	-0.77
O=C1NC(c2cccnc2)C(C(=O)c2cccs2)C(O)(C(F)(F)F)N1 (stereo unspecified)	i	-0.83
OC(CNCc1ccco1)Cn1c2ccccc2c2ccccc21 (stereo unspecified)	i	0.31
CCC(C)NC(=O)CSc1nc2cc(S(=O)(=O)N3CCOCC3)ccc2n1CC (stereo unspecified)	i	-0.76
O=C1[C@@H]2Cc3c([nH]c4ccccc34)C(c3cccc(Br)c3)N2C(=O)CN1C1CCN(Cc2ccccc2)CC1 (stereo partly specified)	i	-0.69
CC(OC(=O)CCc1ccccc1)C(=O)Nc1ccc(Cl)cn1 (stereo unspecified)	i	0.66
O=C(COc1c(Cl)cccc1Cl)Nc1ccccc1N1CCCC1	i	0.98
Cc1nc(C)n(CC(C)C(=O)N2CCN(S(=O)(=O)c3ccc(Cl)cc3)CC2)n1 (stereo unspecified)	i	-0.51
CO/N=C/c1ccc(Oc2ccc(C)cc2)c([N+](=O)[O-])c1	i	-0.27

Whole records, quoted from the list. Screens in order: KCNQ2 block	KCNQ2 block baseline
`O=[N+]([O-])c1cc(S(=O)(=O)NCCN2CCOCC2)ccc1Cl` as listed: i	0.07
`O=C1[C@@H]2Cc3c([nH]c4ccccc34)C(c3cccc(Br)c3)N2C(=O)CN1C1CCN(Cc2ccccc2)CC1` (stereo partly specified) as listed: i	-0.69
`OC(CNCc1ccco1)Cn1c2ccccc2c2ccccc21` (stereo unspecified) as listed: i	0.31
`O=C(COc1c(Cl)cccc1Cl)Nc1ccccc1N1CCCC1` as listed: i	0.98

(continued)
SMILES	KCNQ2 block	KCNQ2 block baseline
Cc1ccc2[nH]c(=O)c(CNC(C)C)cc2c1	i	0.21
CN(C)S(=O)(=O)N(CC(=O)Nc1ccc(F)c(F)c1)c1ccccc1	i	-1.08
COC(=O)C1CCN(C(=O)c2ccc3nccnc3c2)CC1	i	2.37
C=CCn1c(COc2ccc(Cl)cc2)nnc1SCC(=O)N/N=C/c1ccccc1	i	-1.03
O=C(c1ccccc1)c1cccn1CC(=O)N1CCCCCC1	i	-1.01
CC(C)C(=O)Nc1ccccc1C(=O)N/N=C/c1ccc([N+](=O)[O-])cc1	i	-1.48
Cc1ccc(OC(=S)Nc2ccccc2)c(C)c1	i	-0.79
COc1ccc(/C(O)=C2/C(=O)C(=O)N(CCN3CCNCC3)C2c2cccc([N+](=O)[O-])c2)cc1 (stereo unspecified)	i	0.34
Cc1cc(C[n+]2cc(Br)ccc2N)c2ncccc2c1	i	0.18
COCCCNC(=O)CCN1C(=O)COc2ccccc21	i	0.64
Cc1csc(SCC(=O)NC(=O)NC2CCCC2)n1	i	1.98
CC1=C(C(=O)NCCc2ccc(C)cc2)C2(CCC(C)CC2)OC1=O (stereo unspecified)	i	-0.64
Cn1c(=O)cc(OCCCC(=O)NCCN2CCN(c3ccccc3F)CC2)c2ccccc21	i	0.91
COc1ccc(C(=O)COC(=O)CNC(=O)c2ccc(OC)cc2)cc1	i	-0.05
CCOC(=O)c1c(C)[nH]c(C(=O)COC(=O)c2ccc(F)c(S(=O)(=O)N3CCOCC3)c2)c1C	i	-0.95
COc1ccc(C(=O)NCCS(=O)(=O)NC2CCCC2)cc1	i	-0.53
COc1ccc(Nc2oc(-c3ccc(OC)cc3)nc2C#N)cc1	i	-0.35
COc1ccc(NC(=S)NCC(O)c2ccccc2)c(OC)c1 (stereo unspecified)	i	0.09
COc1ccccc1NC(=O)Cc1noc(CN(C)Cc2cccs2)n1	i	1.12
CN(C)S(=O)(=O)c1ccc(N=Cc2c(C(F)(F)F)[nH]n(C)c2=O)cc1	i	0.1
O=C(O)CCCC(=O)N1CCC(C(O)(c2ccccc2)c2ccccc2)CC1	i	-1.93
COc1ccc(/C=C2\SC(=O)N=C2N)cc1OC	i	-1.85
CCCc1nc(NCc2ccccc2)c(C#N)c2c1CCCC2	i	-0.3
CCCCNC(=O)C(CC)Sc1nc2sc(C(=O)OC)c(C)c2c(=O)n1N (stereo unspecified)	i	0.7
Cc1ccc(NC(=O)CCCn2nc(C)c3c(C)n(-c4ccccc4)nc3c2=O)c(Cl)c1	i	0.76
COc1ccc(NS(=O)(=O)c2cc(N/C(=N\S(=O)(=O)c3ccccc3)c3ccc(F)cc3)ccc2Cl)cc1	i	-0.56
CC1(C)Cc2cccc(OCC(=O)Nc3ccc(OCC(N)=O)cc3)c2O1	i	-0.1
O=C(CN=C1NS(=O)(=O)c2ccccc21)OCC(=O)c1ccccc1	i	-1.99
O=C(C[n+]1cccc(/C=N/O)c1)N1CCCc2ccccc21	i	0.86
CC(C)(C)OC(=O)NN1CC(=O)N2Cc3[nH]c4ccccc4c3C[C@H]2C1=O	i	0.96
CCOC(=O)N1CCN(S(=O)(=O)c2ccc(OC)c3ccccc23)CC1	i	-0.15
COC(=O)c1ccccc1NC(=O)Nc1cccc(C)n1	i	-0.33
COc1cccc(Nc2nc(-c3ccc(O)cc3)cs2)c1	i	0.66
Cc1ccc(-c2nc(CSc3nc4ccccc4c(=O)n3CCO)cs2)cc1	i	0.3
COc1ccc(C(=O)N(C)C2CCCN(Cc3ccccc3F)C2)cc1C (stereo unspecified)	i	-0.97
COc1ccc2oc(-c3cccc(NC(=O)CSc4ccc(Cl)cc4)c3)nc2c1	i	-1.41
NC(=O)CSc1nc2ccccc2c(=O)n1-c1ccccc1	i	-1.69
Cc1ccc(S(=O)(=O)c2c(C)nn(C(C)(C)C)c2OC(=O)c2cccs2)cc1	i	2.58
O=C(Cc1ccccc1)NNC(=O)C1CC=CCC1 (stereo unspecified)	i	-0.45

Source: PubChem (Johns Hopkins Ion Channel Center)
